# FGF22 binding – binders of recombinant human FGF22 by thermal shift; AID 651658; SYPRO orange fluorescence; percent of sucrose octasulfate shift, DMSO zero; actives 1.5% (n = 340,000); calls only at 9.99 µM;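 active = melting point raised past a set limit in the mean and every replicate; inconclusive = no clear call; three in four hits are not shown here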
# Target sequence (Q9HCT0 whole entry, looked up): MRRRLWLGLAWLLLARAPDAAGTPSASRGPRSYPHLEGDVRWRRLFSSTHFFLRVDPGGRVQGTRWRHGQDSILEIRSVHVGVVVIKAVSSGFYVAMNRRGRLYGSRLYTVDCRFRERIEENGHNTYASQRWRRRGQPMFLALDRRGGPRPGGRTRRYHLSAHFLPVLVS
# MLL AF4-AF9 inh – MLL-AF4/AF9 protein interaction inhibition | P42568 | AID 651704 | actives 0.47% (n = 350,000) | AlphaScreen, biotin-AF4 peptide binding to FLAG-AF9 | inhibition, % at 10 µM;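 active = every replicate reaching a set inhibition limit, whatever the replicate mean, cut at about 25% in these data; inconclusive = mean inhibition reaches that limit but some replicates miss it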;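 also: 0% = plate neutral control median and 100% = total signal loss; the record names both 10 and 1 µM as test concentration; the first replicate is given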
# Target sequence (P42568 whole entry, looked up): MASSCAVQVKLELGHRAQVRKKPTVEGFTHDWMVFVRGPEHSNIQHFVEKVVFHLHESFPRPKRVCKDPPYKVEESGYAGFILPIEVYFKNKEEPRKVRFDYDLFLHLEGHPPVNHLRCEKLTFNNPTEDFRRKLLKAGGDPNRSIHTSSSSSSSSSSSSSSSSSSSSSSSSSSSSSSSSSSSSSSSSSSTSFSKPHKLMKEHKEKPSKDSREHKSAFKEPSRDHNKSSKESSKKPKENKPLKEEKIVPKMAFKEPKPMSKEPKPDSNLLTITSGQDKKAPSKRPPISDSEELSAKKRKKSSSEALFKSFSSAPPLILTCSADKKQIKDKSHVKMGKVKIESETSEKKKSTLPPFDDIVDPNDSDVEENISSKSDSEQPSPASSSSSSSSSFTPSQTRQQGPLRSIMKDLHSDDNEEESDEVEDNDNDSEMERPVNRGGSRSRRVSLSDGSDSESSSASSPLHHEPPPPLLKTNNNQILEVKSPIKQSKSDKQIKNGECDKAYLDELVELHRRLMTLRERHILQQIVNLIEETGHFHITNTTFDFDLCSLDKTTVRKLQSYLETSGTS
# Active calls of the source: *; i = inactive; ? = inconclusive. This is a subset. The share of hits here may be higher or lower than overall.
Molecule | FGF22 binding | MLL AF4-AF9 inh
C[C@@H]1CN([C@@H](C)CO)C(=O)c2cc(NC(=O)Cc3ccccc3)ccc2O[C@@H](C)CCCCO[C@H]1CN(C)Cc1ccccc1 | i | 4.0
CO[C@@H]1CN(C)C(=O)c2ccc(NC(=O)Nc3ccccc3)cc2OC[C@@H](C)N(C(=O)Nc2c(C)noc2C)C[C@H]1C | i | 0.7
C[C@H](NC(=O)C[C@@H]1C=C[C@@H](NC(=O)C2CCC2)[C@H](CO)O1)c1ccccc1 | i | -10.1
CC=Cc1ccc2n(c1=O)C[C@H]1[C@H](CO)[C@@H](C(=O)NCCc3ccncc3)N[C@@H]21 (mixture of isomers) | i | 0.4
C[C@H]1CCCCO[C@@H](CN(C)C(=O)Nc2cccc3ccccc23)[C@@H](C)CN([C@@H](C)CO)C(=O)c2cc(NS(C)(=O)=O)ccc2O1 | i | -11.9
C[C@@H]1CCCCO[C@@H](CN(C)CC2CCCCC2)[C@H](C)CN([C@@H](C)CO)C(=O)c2cc(NC(=O)CCCN(C)C)ccc2O1 | i | 4.0
C[C@H]1CN([C@@H](C)CO)S(=O)(=O)c2ccc(-c3ccncc3)cc2O[C@@H]1CN(C)Cc1cncnc1 | i | -0.8
C[C@H](CO)N1C[C@H](C)[C@H](CN(C)S(=O)(=O)c2cccs2)Oc2c(NC(=O)c3ccncc3)cccc2C1=O | i | -6.1
CN1C(=O)c2cc(NC(=O)Cc3cccs3)ccc2OC[C@H]2O[C@@H](CC(=O)N[C@@H]3CCN(Cc4ccccc4)C3)CC[C@H]21 | i | 3.2
CO[C@H]1CN(C)C(=O)c2ccc(NC(C)=O)cc2OC[C@@H](C)N(CCC(F)(F)F)C[C@@H]1C | i | -0.5
Cc1ccc(S(=O)(=O)N(C)C[C@@H]2OCCCC[C@@H](C)Oc3ccc(NS(C)(=O)=O)cc3C(=O)N([C@@H](C)CO)C[C@@H]2C)cc1 | i | -0.1
Cc1ccccc1-c1cnc2c(c1)C(=O)N([C@@H](C)CO)C[C@H](C)[C@@H](CN(C)CC1CCCCC1)O2 | i | -0.1
C[C@H](CO)N1C[C@H](C)[C@H](CN(C)S(=O)(=O)c2ccccc2)Oc2ccc(NS(=O)(=O)c3cccs3)cc2C1=O | i | -2.3
O=C(Cc1ccccc1)N[C@H]1CC[C@@H](CC(=O)N2CCCCC2)O[C@@H]1CO | i | -0.2
CC(C)NC(=O)Nc1cccc2c1O[C@@H](CN(C)S(C)(=O)=O)[C@H](C)CN([C@H](C)CO)C2=O | i | -1.3
C[C@@H]1CCCCO[C@@H](CN(C)Cc2ccc(C(=O)Nc3ccccc3N)cc2)[C@@H](C)CN([C@H](C)CO)C(=O)c2cc(NS(=O)(=O)c3ccc(F)cc3)ccc2O1 | i | -1.0
C=CCCC1CN(Cc2ccc(OC)cc2)S(=O)(=O)c2c(cccc2Sc2ccc(OC)c(OC)c2)O1 (configuration not stated) | i | 0.3
COc1ccc(NC(=O)N(C)C[C@@H]2Oc3ccc(NC(=O)NC(C)C)cc3CC(=O)N([C@@H](C)CO)C[C@H]2C)cc1 | i | -17.5
C[C@H](CO)N1C[C@H](C)[C@H](CN(C)Cc2ccccc2)Oc2cc(C#CCN(C)C)ccc2S1(=O)=O | i | 6.8
CO[C@H]1CN(C)C(=O)c2cc(NC(=O)c3cnccn3)ccc2OC[C@H](C)N(CCc2ccccc2)C[C@@H]1C | i | 5.8

# Further compounds follow.
Molecule | FGF22 binding | MLL AF4-AF9 inh
CCCNC(=O)C[C@@H]1CC[C@H]2[C@@H](COC[C@H](O)CN2Cc2ccncc2)O1 | i | -3.1
C[C@H]1CCCCO[C@H](CN(C)C(=O)Nc2ccccc2)[C@@H](C)CN([C@@H](C)CO)C(=O)c2cc(NC(=O)Nc3ccc4c(c3)OCO4)ccc2O1 | i | 3.0
O=C(C[C@H]1CC[C@H](NC(=O)Nc2cccc(F)c2)[C@@H](CO)O1)NCC1CC1 | i | -3.4
COc1ccc(S(=O)(=O)Nc2cccc3c2O[C@@H](CN(C)Cc2ccc(Oc4ccccc4)cc2)[C@H](C)CN([C@H](C)CO)C3=O)cc1 | i | 4.8
CCS(=O)(=O)N1[C@H](C#N)[C@H](c2ccc(-c3cccc(F)c3)cc2)[C@@H]1CO | i | 0.3
COc1ccc(C#Cc2ccc([C@H]3[C@@H](CO)N4CCCCN(C)C[C@@H]34)cc2)cc1 | i | 0.7
C[C@@H]1CN([C@H](C)CO)C(=O)c2cccc(NC(=O)C3CCCCC3)c2O[C@@H]1CN(C)Cc1ccncc1 | i | -1.7
C[C@H]1CN([C@@H](C)CO)C(=O)c2cc(-c3ccccc3F)cnc2O[C@H]1CN(C)Cc1ccccc1 | i | -2.4
Cc1noc(C)c1S(=O)(=O)Nc1ccc2c(c1)C(=O)N([C@@H](C)CO)C[C@@H](C)[C@H](CN(C)C(=O)Nc1ccc3c(c1)OCO3)OCCCC[C@H](C)O2 | i | 3.1
O=C(CCN1CCCCC1)NCC[C@H]1CC[C@H](NC(=O)C2CCCC2)[C@@H](CO)O1 | i | -0.7
C[C@@H]1CN([C@H](C)CO)C(=O)Cc2cc(NC(=O)Cn3cnnn3)ccc2O[C@@H]1CN(C)Cc1ccc2c(c1)OCO2 | i | 1.4
C[C@H]1CN([C@@H](C)CO)C(=O)c2cc(NC(=O)Nc3ccc(C(F)(F)F)cc3)ccc2O[C@H]1CN(C)Cc1ccc(-c2ccccc2)cc1 | i | 2.7
COc1ccc(-c2ccccc2[C@H]2[C@@H](CO)N(C(=O)NC(C)C)[C@H]2C#N)cc1 | i | -2.6
CC(=O)N[C@@H]1C=C[C@H](CC(=O)NCC2CCCCC2)O[C@H]1CO | i | -1.2
C[C@@H]1CCCCO[C@H](CN(C)CC2CCCCC2)[C@H](C)CN([C@H](C)CO)C(=O)c2cc(NC(=O)c3ccccc3)ccc2O1 | i | ?
CCCNC(=O)N1CC2(CCN(Cc3nccs3)CC2)c2c([nH]c3cc(OC)ccc23)[C@H]1CO | i | 1.9
CC(=O)N1[C@@H]2c3ccc(C4=CCCCC4)c(=O)n3C[C@H]1[C@H](CO)[C@H]2C(=O)NC1CCCC1 | i | -2.8
CC=Cc1ccc2n(c1=O)C[C@@H]1[C@@H](CO)[C@H](C(=O)NCC)[C@H]2N1Cc1nccs1 (mixture of isomers) | i | 0.7
COc1ccc2c3c(n(C)c2c1)[C@@H](CO)NCC31CCN(C(C)=O)CC1 | i | -3.6
CCCNC(=O)N1C[C@H](O)COC[C@@H]2O[C@@H](CC(=O)OC)CC[C@H]21 | i | -2.4

# Next part.
Molecule | FGF22 binding | MLL AF4-AF9 inh
CCCC(=O)Nc1ccc2c(c1)C(=O)N(C)C[C@@H](OC)[C@@H](C)CN(C(=O)c1ccccc1F)[C@H](C)CO2 | i | -0.7
C[C@@H]1CN([C@@H](C)CO)C(=O)Cc2cc(NC(=O)Nc3ccc(C(F)(F)F)cc3)ccc2O[C@@H]1CN(C)Cc1ccncc1 | i | 3.2
COc1ccc(NC(=O)N(C)C[C@H]2Oc3c(NS(=O)(=O)c4ccccc4)cccc3C(=O)N([C@H](C)CO)C[C@@H]2C)cc1 | i | -0.4
CS(=O)(=O)N1[C@H](CO)[C@H](c2ccccc2-c2ccc(F)cc2)[C@@H]1C#N | i | -1.5
CS(=O)(=O)N1[C@@H]2Cn3c(ccc(C4=CCCCC4)c3=O)[C@H]1[C@@H](C(=O)N1CCCCC1)[C@@H]2CO | i | 0.4
CC(C)(C)OC(=O)N[C@H]1C=C[C@@H](CC(=O)OCC(F)(F)F)C1 | i | -1.3
Cc1ccc(S(=O)(=O)Nc2cccc3c2O[C@@H](CN(C)C(=O)Nc2ccc(C(F)(F)F)cc2)[C@H](C)CN([C@@H](C)CO)C3=O)cc1 | i | -6.3
Cc1noc(C)c1NC(=O)N(C)C[C@H]1Oc2ccc(NC(=O)Nc3ccc(F)cc3)cc2CC(=O)N([C@@H](C)CO)C[C@@H]1C | i | -3.5
Cn1cnc(S(=O)(=O)N[C@@H]2C=C[C@@H](CC(=O)Nc3ccc(-c4ccccc4)cc3)O[C@@H]2CO)c1 | i | -0.1
Cn1cnc(S(=O)(=O)N[C@@H]2CC[C@H](CC(=O)NCC3CC3)O[C@@H]2CO)c1 | i | -1.3
Cc1noc(C)c1NC(=O)N[C@H]1C=C[C@@H](CC(=O)N2CCN(C)CC2)O[C@@H]1CO | i | -0.3
O=S(=O)(c1ccccc1)N1CCCCN2[C@@H](CO)[C@H](c3ccc(C#Cc4cccnc4)cc3)[C@@H]2C1 | i | -8.1
CC(C)N(C[C@H]1N[C@@H](CO)[C@H]1c1ccccc1)C(=O)c1ccccc1 | i | 0.6
C[C@@H]1CCCCO[C@@H](CN(C)S(=O)(=O)c2ccccc2)[C@H](C)CN([C@H](C)CO)C(=O)c2cc(NS(=O)(=O)c3cccs3)ccc2O1 | i | 0.2
CC(C)NC(=O)Nc1ccc2c(c1)C(=O)N([C@H](C)CO)C[C@H](C)[C@H](CN(C)Cc1ccc(C(F)(F)F)cc1)OCCCC[C@H](C)O2 | i | 7.2
CN1C[C@H]2[C@@H](c3ccccc31)[C@H](CO)N2Cc1ccccc1Cl | i | 4.8
CCC(=O)Nc1ccc2c(c1)C(=O)N(C)C[C@@H](OC)[C@@H](C)CN(C(=O)c1ccccc1F)[C@H](C)CO2 | i | -1.6
COCC(=O)N1[C@@H]2Cn3c(ccc(-c4ccccc4)c3=O)[C@H]1[C@@H](C(=O)NCc1ccccn1)[C@@H]2CO | i | 1.4
C[C@H](CO)N1C[C@H](C)[C@@H](CN(C)Cc2ccc(Oc3ccccc3)cc2)Oc2ccc(N(C)C)cc2C1=O | i | 37.4*
COc1ccccc1-c1ccc2c(c1)O[C@H](CN(C)C(C)=O)[C@H](C)CN([C@H](C)CO)S2(=O)=O | i | -3.2

# Another view of some results above:
FGF22 binding,MLL AF4-AF9 inh,smiles
i,0.4,CS(=O)(=O)N1[C@@H]2Cn3c(ccc(C4=CCCCC4)c3=O)[C@H]1[C@@H](C(=O)N1CCCCC1)[C@@H]2CO
i,-1.3,CC(C)(C)OC(=O)N[C@H]1C=C[C@@H](CC(=O)OCC(F)(F)F)C1
i,3.2,C[C@@H]1CN([C@@H](C)CO)C(=O)Cc2cc(NC(=O)Nc3ccc(C(F)(F)F)cc3)ccc2O[C@@H]1CN(C)Cc1ccncc1

# Further results
Molecule | FGF22 binding | MLL AF4-AF9 inh
COc1ccc(S(=O)(=O)Nc2ccc3c(c2)C(=O)N([C@@H](C)CO)C[C@@H](C)[C@@H](CN(C)Cc2ccc4c(c2)OCO4)OCCCC[C@H](C)O3)cc1 | i | -0.6
COc1ccc(NC(=O)Nc2ccc3c(c2)[C@H]2C[C@@H](CC(=O)NCc4ccncc4)O[C@@H](CO)[C@H]2O3)cc1 | i | -2.2
Cc1ccc(S(=O)(=O)N(C)C[C@H]2Oc3ccc(NC(=O)NC(C)C)cc3CC(=O)N([C@H](C)CO)C[C@@H]2C)cc1 | i | 1.8
C[C@@H]1CCCCO[C@H](CN(C)C(=O)c2ccccc2)[C@@H](C)CN([C@H](C)CO)C(=O)c2cc(NC(=O)Nc3ccc4c(c3)OCO4)ccc2O1 | i | 0.2
Cc1noc(C)c1S(=O)(=O)Nc1cccc2c1O[C@H](CN(C)CC1CC1)[C@H](C)CN([C@H](C)CO)C2=O | i | -3.9
C[C@@H]1CN([C@H](C)CO)C(=O)c2cccc(NC(=O)c3ccc(-c4nccs4)cc3)c2O[C@H]1CN(C)Cc1ccccc1 | i | 9.3
COc1ccccc1-c1ccc([C@@H]2[C@@H](CO)N(C(=O)C3CCC3)[C@H]2C#N)cc1 | i | -0.2
CCc1cnc(N2[C@@H](C#N)[C@H](c3ccc(-c4cccc(F)c4)cc3)[C@@H]2CO)s1 | i | -18.2
O=C(C[C@@H]1CC[C@@H](NC(=O)c2cccc(F)c2)[C@H](CO)O1)NCCN1CCCC1 | i | -0.6
CCCNC(=O)Nc1ccc2c(c1)C(=O)N(C)C[C@H](OC)[C@@H](C)CN(Cc1cccnc1)[C@@H](C)CO2 | i | -1.4
C[C@H](NC(=O)C[C@@H]1CC[C@H](NC(=O)Nc2ccc3c(c2)OCO3)[C@@H](CO)O1)c1ccccc1 | i | -1.3
N#C[C@@H]1[C@H](c2ccccc2)[C@@H](CO)N1C(=O)c1cc(Cl)cc(Cl)c1 | i | 1.9
O=C(C[C@@H]1C[C@@H]2c3cc(NC(=O)C4CCOCC4)ccc3O[C@@H]2[C@H](CO)O1)NCc1ccc2c(c1)OCO2 | i | -0.8
O=C(NCc1cccc(F)c1)[C@H]1[C@H](CO)[C@H]2Cn3c(ccc(-c4ccncc4)c3=O)[C@@H]1N2CC1CC1 | i | -1.3
Cc1noc(C)c1NC(=O)N(C)C[C@@H]1Oc2ccc(NC(=O)C3CC3)cc2CC(=O)N([C@H](C)CO)C[C@H]1C | i | -2.5
CC(C)NC(=O)N(C)C[C@@H]1OCCCC[C@@H](C)Oc2ccc(NS(=O)(=O)c3ccc(F)cc3)cc2C(=O)N([C@@H](C)CO)C[C@@H]1C | i | -1.4
C[C@@H]1CN([C@H](C)CO)C(=O)Cc2cc(NC(=O)C3CCCCC3)ccc2O[C@H]1CN(C)Cc1ccc(Oc2ccccc2)cc1 | i | 1.9

# Single entries from the entries so far.
# O=C(C[C@@H]1CC[C@@H](NC(=O)c2cccc(F)c2)[C@H](CO)O1)NCCN1CCCC1 @ MLL AF4-AF9 inh = -0.6
# O=C(NCc1cccc(F)c1)[C@H]1[C@H](CO)[C@H]2Cn3c(ccc(-c4ccncc4)c3=O)[C@@H]1N2CC1CC1 @ MLL AF4-AF9 inh = -1.3
# Cc1noc(C)c1S(=O)(=O)Nc1cccc2c1O[C@H](CN(C)CC1CC1)[C@H](C)CN([C@H](C)CO)C2=O @ MLL AF4-AF9 inh = -3.9
# C[C@@H]1CN([C@H](C)CO)C(=O)c2cccc(NC(=O)c3ccc(-c4nccs4)cc3)c2O[C@H]1CN(C)Cc1ccccc1 @ MLL AF4-AF9 inh = 9.3
# CCCNC(=O)Nc1ccc2c(c1)C(=O)N(C)C[C@H](OC)[C@@H](C)CN(Cc1cccnc1)[C@@H](C)CO2 @ MLL AF4-AF9 inh = -1.4
